From PubChem
RecA splice inh = Mtb RecA intein splicing inhibitors, primary screen, biochemical, fluorescence, HTS; Protein RecA (Mycobacterium tuberculosis (strain ATCC 25618 / H37Rv)), P9WHJ3; cell-free RecA intein splicing; inhibition, %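 (about 9 µM by stock and volumes)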; 290,000 compounds, 0.75% hits; AID 2221, 2009; in the data active means inhibition above about 30%; inconclusive means no clear call, values can overlap the other calls;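 further: 0% = vehicle wells and 100% = reference inhibitor control wells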
Target sequence (P9WHJ3 whole entry, looked up, canonical isoform): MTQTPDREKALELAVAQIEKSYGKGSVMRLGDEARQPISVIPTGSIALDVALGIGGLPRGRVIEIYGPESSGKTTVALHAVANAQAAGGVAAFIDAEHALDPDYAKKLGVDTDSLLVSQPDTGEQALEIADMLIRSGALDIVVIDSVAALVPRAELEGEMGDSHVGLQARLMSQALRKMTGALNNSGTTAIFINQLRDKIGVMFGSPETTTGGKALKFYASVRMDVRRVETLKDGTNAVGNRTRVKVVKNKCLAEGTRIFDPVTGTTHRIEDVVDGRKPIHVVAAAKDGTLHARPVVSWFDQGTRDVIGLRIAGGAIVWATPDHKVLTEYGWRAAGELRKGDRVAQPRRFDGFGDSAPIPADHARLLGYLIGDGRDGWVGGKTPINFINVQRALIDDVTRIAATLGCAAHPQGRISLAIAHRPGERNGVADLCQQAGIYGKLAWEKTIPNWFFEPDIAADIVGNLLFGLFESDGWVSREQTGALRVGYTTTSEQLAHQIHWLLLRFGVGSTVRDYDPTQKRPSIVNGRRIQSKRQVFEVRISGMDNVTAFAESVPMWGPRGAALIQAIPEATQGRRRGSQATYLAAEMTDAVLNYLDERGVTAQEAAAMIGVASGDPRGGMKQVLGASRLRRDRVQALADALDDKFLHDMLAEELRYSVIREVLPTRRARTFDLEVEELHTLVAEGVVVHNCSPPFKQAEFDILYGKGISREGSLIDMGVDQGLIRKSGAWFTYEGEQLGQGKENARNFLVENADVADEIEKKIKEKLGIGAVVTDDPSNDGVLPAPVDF
Arbovirus inh = antivirals against arbovirus infection, primary screen, cell-based, full library, 10K replicate subset; AID 1251, 2008; 200,000 compounds, 0.37% hits; inhibition, % at 10 µM; arbovirus infection cell-based antiviral screen;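 active means inhibition from about 30%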;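 further: bluetongue infection of BSR cells; cell survival read as ATP light after 72 h; 0% = infected wells without compound and 100% = uninfected wells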
YopH PTP inh = YopH tyrosine phosphatase inhibitors, primary screen, biochemical, fluorescence Ex485/Em525. YopH tyrosine phosphatase [Yersinia enterocolitica]. inhibition, %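 (about 10 µM by stock and volumes)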. 140,000 compounds, 0.16% hits;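 active means inhibition of 50% or more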;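 further: controls were vehicle for no effect and minimum signal wells for full effect; inactives centre near -20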
Mtb H37Rv = M. tuberculosis H37Rv growth inhibitors, H37Rv strain (AID 1626) | M. tuberculosis H37Rv growth inhibition; higher % means a stronger effect | 220,000 compounds, 0.95% hits | inhibition, % at 10 µM; hits with a dose series show IC50 in µM;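 active means confirmed in a dose series; inconclusive means inhibition above 80% but not taken into the dose series; inactive means below 80% or under 30% at every dose of the series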;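 further: bacteria incubated seven days before Alamar blue readout; 0% = bacteria only wells and 100% = bacteria with antibiotic wells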
Mtb betalactam = beta-lactam sensitization of Mtb H37Rv, H37Rv | M. tuberculosis H37Rv growth with meropenem, percent inhibition; hits of this screen are not shown here | inhibition, % at 25 µM | 330,000 compounds, 0.27% hits;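 active means about 74% or more and at least 40 points above the plate without the antibiotic, then above 30% in a dose series; inconclusive means first-round hits that could not be retested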;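 further: growth measured after seven days incubation then overnight dye step; 0% = bacteria only wells and 100% = bacteria with antibiotic; twin plates without the antibiotic show which effects depend on it; some results filed as inactive read as strong as hits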
Arbovirus inh repeat = recorded beside Arbovirus inh, whose call it bears; inhibition, %; measured here: 10K subset replicate screen; many hits read low in the repeat;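 first of two repeat runs on a subset; 0% = infected and 100% = uninfected wells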
Active calls of the source: *; ? = inconclusive; nt = no result given. A portion of the library. The share of hits here may be higher or lower than overall.

SMILES	RecA splice inh	Arbovirus inh	YopH PTP inh	Mtb H37Rv	Mtb betalactam	others
CNCc1nc2ccccc2[nH]1	0.8	0.0	nt	-7.8%	2.4
CCc1ccccc1NC(=O)N1CCC(NC(=O)C(Cc2ccc(OC)c(OC)c2)NC(C)=O)CC1 (stereo unspecified)	-1.3	1.4	3.7	-0.6%	-4.7
O=C1c2ccccc2NC(c2cccc(O)c2)N1NS(=O)(=O)c1ccccc1 (stereo unspecified)	-3.3	8.1	nt	-0.9%	-2.9
O=C(C1CCCN(C2CC(=O)N(c3ccc(Cl)cc3)C2=O)C1)N1CCCC1 (stereo unspecified)	-0.4	nt	nt	nt	0.8
CCOc1ccc(CN2CCN(C3CCC3)CC2CCO)cc1 (stereo unspecified)	-2.4	nt	nt	nt	-5.0
CCOC(=O)N1CCN(CC(=O)Nc2sccc2C#N)CC1	3.2	13.4	nt	5.9%	1.4
O=C(COC(=O)CNS(=O)(=O)c1ccc(Br)cc1Cl)NC1CCCC1	1.8	nt	nt	nt	-13.7
CCCCOc1ccc(/C=C/C(=O)Nc2ccc([N+](=O)[O-])cc2C)cc1	2.7	17.9	-15.4	91.8%	7.0
Cc1oc(-c2ccccc2)cc1C(=O)NC(Cc1c[nH]c2ccccc12)C(=O)O (stereo unspecified)	3.2	5.4	-32.2	-13.7%	-0.1
N#CC1=C(N)SC(N)=C(C#N)C1c1cccc(O)c1	-4.2	2.6	-15.3	3.5%	4.3
Cc1ccc(-n2c(SCC(=O)N3CCOCC3)nnc2-c2cccnc2)cc1	-1.3	12.0	-29.9	-4.4%	-13.3
Cn1c(=O)n(C)c2cc(NC(=O)Cc3ccccc3[N+](=O)[O-])ccc21	1.4	nt	nt	nt	-0.4
CCO/N=C(/C)c1c(O)c(C)c(-c2ccccc2)n(-c2ccccc2)c1=O	3.1	2.2	-39.0	0.5%	1.3
COc1ccc(N/C=C/c2nc(SC)nnc2C)cc1	0.5	-11.1	nt	94.2%	2.0
Cc1nn(-c2ccccc2)c(Cl)c1C1C(C#N)=C(N)OC2=C1C(=O)CC(C)(C)C2 (stereo unspecified)	7.1	-13.4	-40.9	3.3%	24.2
COc1cc(C2C(C#N)=C(N)Oc3c2oc(CO)cc3=O)ccc1OC(C)C (stereo unspecified)	-2.4	2.1	-33.0	-11.0%	-1.5
O=C(OCCN1C(=O)c2cccc3c(N4CCOCC4)ccc(c23)C1=O)c1ccccc1Cl	-336.8	1.1	-20.4	65.9%	-0.6
O=c1[nH]c(=O)n(Cc2ccc(F)cc2)c(O)c1C=NCCCO	-0.2	1.8	-17.0	4.1%	4.0
O=C(N/C(=C\c1ccc([N+](=O)[O-])cc1)C(=O)N1CCOCC1)c1ccco1	1.1	nt	nt	nt	4.8
COc1cc2[nH]c(C(=O)NN)c(N)c2cc1OC	0.1	nt	nt	-4.3%	-5.4
O=C(Nc1nnc(-c2ccc(F)cc2)o1)C1CCCN1S(=O)(=O)c1cccs1 (stereo unspecified)	-1.4	nt	nt	nt	0.5
Cc1ccc(-c2noc(CNc3ccccc3)n2)cc1	5.2	-30.4	-2.9	10.6%	4.6
O=P(Oc1ccccc1)(Oc1ccccc1)C(O)c1ccccc1 (stereo unspecified)	-1.7	nt	nt	nt	-0.7
Cc1ccc(NC(=O)NCc2ccc3c(c2)OCO3)cc1	-0.1	2.1	11.7	1.2%	-4.0
CC(C)(C)NC(=O)C(c1ccc(O)cc1)N(C(=O)CCC(=O)Nc1nccs1)c1cccc(F)c1 (stereo unspecified)	1.8	3.9	nt	-4.8%	-7.1
COCn1c(-c2ccc(OC)c(OC)c2)nc2ccccc21	-4.1	0.8	-55.9	-3.5%	?
Cc1nc2c(ccc3nc(NC(=O)c4ccc(S(=O)(=O)N(C)C)cc4)sc32)s1	1.7	-4.3	-29.0	-5.3%	-4.5
CCOC(=O)c1[nH]c2c(c1-c1ccc(OC)cc1)C(=O)CC(c1ccc(OC)c(OC)c1)C2 (stereo unspecified)	4.9	-0.4	-32.0	nt	-4.0
O=C(Nc1cc(F)cc(F)c1)c1ccc(NCCc2ccccc2)c([N+](=O)[O-])c1	-3.4	-9.7	-17.9	4.2%	-5.3
CCc1ccc(NS(=O)(=O)c2ccc3c(c2)oc(=O)n3C)cc1	-0.2	nt	nt	nt	-9.4
Cc1ccc(N(CC(=O)NN=C2CCN(C)CC2)S(=O)(=O)c2ccccc2)c(C)c1	-1.8	0.7	-23.7	-2.4%	-1.3
COc1ccccc1C(=O)Oc1ccc2c(c1)O/C(=C\c1ccncc1)C2=O	-3.4	12.2	-10.4	2.9%	7.9
COC(=O)c1ccc2nc(NC(=O)C(C)C)sc2c1	0.9	-7.5	nt	4.5%	-2.1
Cc1ccc(CNC(=O)CCS(=O)(=O)c2ccc3c(c2)oc(=O)n3C)cc1	-1.2	nt	nt	nt	-8.0
CCCNC(=O)NC(=O)COc1c(F)c(F)cc(F)c1F	-2.4	2.0	5.3	-1.6%	-2.2
COCCCn1c(SCC(=O)Nc2ccc(C)cc2)nc2ccccc2c1=O	-2.4	-4.3	nt	-4.0%	-0.8
Fc1cccc(Cl)c1CSC1=NCCS1	-0.7	nt	nt	nt	-2.5
C[C@@H]1CC=C[C@H]2[C@H]1C(=O)N(Cc1ccccc1)[C@H]2c1ccc(-c2ccc(N(C)C)cc2)cc1F	2.5	nt	nt	10.3%	90.9
COc1ccccc1C(=O)Nc1ccc(S(=O)(=O)N2CCc3ccccc32)cc1	6.2	7.8	-17.0	5.2%	-9.2
O=C(Cc1ccc(Br)cc1)Nc1ccc(Cl)cc1	6.0	12.2	nt	-2.0%	5.6
Cn1c(=O)c2c(SCC(=O)NC3CCCC3)nc(CC(C)(C)C)nc2n(C)c1=O	-1.1	nt	nt	nt	-4.5
O=C(Nc1ccc(Br)cn1)c1ccc(Br)s1	-0.8	nt	nt	nt	8.8
CCCCOC(=O)CSc1nnc(-c2cc(OC)c(OC)c(OC)c2)o1	1.0	5.2	-43.2	?	98.4
Cn1c(=O)[nH]c(=O)c2c1nc(N1CCCC1)n2CCCSc1nnnn1-c1ccccc1	8.0	19.1	-2.2	-4.2%	2.8
CN(C)c1ccc(/C=C/C(=O)c2ccccc2O)cc1	0.0	0.5	nt	5.8%	7.0
Cc1ccc(N(Cc2ccc([N+](=O)[O-])cc2)C(=O)c2ccco2)cc1C	10.9	-4.0	-26.8	5.4%	1.1
CCn1nc(NC(=O)COC)c2cc3cc(C)ccc3nc21	-91.6	nt	nt	nt	-8.6
CC(=O)c1sc(NC(=O)C=C(C)C)nc1C	0.8	-4.2	25.0	2.3%	7.2
O=C(CCC(=O)OCC(F)(F)C(F)F)NCc1ccccc1	3.2	-4.8	-7.4	-6.3%	7.8
O=C(N/N=C/c1cc([N+](=O)[O-])ccc1O)c1ccncc1	4.6	nt	nt	?	99.4
CN(CC(=O)Nc1cccnc1)S(=O)(=O)c1ccccc1	-0.2	-0.3	-3.0	-7.5%	-10.7
Cc1c(C(=O)Oc2cc(N)n(S(C)(=O)=O)n2)cccc1[N+](=O)[O-]	2.8	0.7	nt	0.0%	-5.3
COc1cc(OC)c(C(=O)Nc2ccc(N(C)C)cc2)cc1OC	-1.0	-11.7	-5.7	-9.3%	22.7
FC(F)(F)c1cccc(Oc2ccc3c(C(F)(F)F)cc(C(F)(F)F)nc3n2)c1	2.4	50.6*	-12.8	-5.3%	0.3
Cc1ccc(C2=NCC(=O)Nc3ccc(Br)cc32)cc1	4.9	nt	nt	nt	0.3
CCOC(=O)C1C(=O)CC(C)(O)C(C(=O)OCC)C1c1ccc(C)s1 (stereo unspecified)	-1.0	-3.2	-9.7	1.5%	6.0
COC(=O)C(Cc1ccccc1)NC(=O)CCNC(=O)c1ccco1 (stereo unspecified)	-2.9	nt	nt	nt	1.4
CS(=O)(=O)N(CCc1ccccc1)CC(=O)N1CCN(c2ccccc2)CC1	nt	4.3	-4.3	-8.8%	-6.7
COCCCNc1nc2ccccc2nc1NS(=O)(=O)c1ccc(C)c(C)c1	-1.5	nt	nt	-3.5%	-1.4
Cc1ccc(O)c(-c2cc(C(=O)NCc3ccncc3)[nH]n2)c1	0.0	2.4	-54.1	-11.9%	1.8

Remaining list, next part.
SMILES	RecA splice inh	Arbovirus inh	YopH PTP inh	Mtb H37Rv	Mtb betalactam	others
CN1/C(=C\C=C2/SC(=S)NC2=O)C(C)(C)c2ccccc21	0.0	6.5	nt	10.1%	29.4
COC(=O)c1sccc1NC(=O)Cc1ccc(Br)cc1	10.5	1.4	-25.7	9.7%	-4.3
Cc1ccc(NC(=O)CSc2nc3nc(C)c(Br)cc3[nH]2)cc1F	0.4	nt	nt	nt	0.2
C[C@@](Cc1ccc(O)c(O)c1)(NN)C(=O)O	nt	-5.2	-5.7	nt	nt
CCOC(=O)c1c(NC(=O)c2ccc(Br)o2)sc(C)c1CC	0.4	11.5	-25.7	30.6%	83.4	Arbovirus inh repeat=3.2
O=C(NCCCN1CCOCC1)c1c(F)cccc1F	1.5	3.3	-27.9	-3.2%	-0.2
CC1CCC(NC(=O)CSc2nncs2)CC1 (stereo unspecified)	-2.1	nt	nt	nt	6.0
Cc1cccc(C)c1OCC(=O)N/N=C/C=C/c1ccco1	0.2	-2.3	nt	4.6%	-6.0
CC1CN(CC(=O)NC(C)c2ccccc2)CC(C)O1 (stereo unspecified)	-1.8	nt	nt	nt	-12.2
CC(C)Oc1c(N2CCOCC2)c(=O)c1=O	0.1	nt	nt	-10.1%	-2.1
O/N=C\c1ccccc1Oc1ccc(F)cc1	1.6	17.7	nt	4.1%	-5.0
Cc1c(NC(=O)Cc2cccs2)cccc1[N+](=O)[O-]	-2.6	-1.1	nt	7.4%	-6.8
Cc1cc(OCC(=O)NCCN2CCOCC2)ccc1Br	1.1	-4.0	-32.4	2.0%	0.7
O=S(=O)(Nc1nc2ccccc2nc1NCc1ccco1)c1ccccc1	0.5	3.5	8.9	-1.4%	-6.9
CC(C)C(=O)NC(=S)Nc1ccccc1N1CCN(C(=O)c2ccccc2)CC1	3.8	-0.3	nt	0.0%	-5.3
O=C(NC1=NCCS1)c1ccc(Cl)c(S(=O)(=O)N2CCc3ccccc32)c1	3.8	nt	nt	-0.3%	3.8
CN(C)c1ccc(NC(=O)C(=O)C2C(=O)Nc3ccccc32)cc1 (stereo unspecified)	-4.8	nt	nt	-9.9%	-4.0
C/C(N)=C(/C#N)C(=O)CSc1nnc(Nc2c(C)cccc2C)s1	nt	7.3	-27.0	-7.0%	5.8
Cc1cc(N/N=C/c2ccccc2O)nc(-c2ccccc2O)n1	18.3	-13.8	-10.6	63.5%	77.3
Cc1cc(Br)c(NC(=O)c2c(-c3c(Cl)cccc3Cl)noc2C)c(Br)c1	1.9	nt	nt	-4.9%	-5.6

Ordered by number of heavy atoms (lowest first): some entries from above
SMILES	RecA splice inh	Arbovirus inh	YopH PTP inh	Mtb H37Rv	Mtb betalactam	others
N#CC1=C(N)SC(N)=C(C#N)C1c1cccc(O)c1	-4.2	2.6	-15.3	3.5%	4.3
COC(=O)c1sccc1NC(=O)Cc1ccc(Br)cc1	10.5	1.4	-25.7	9.7%	-4.3
COCn1c(-c2ccc(OC)c(OC)c2)nc2ccccc21	-4.1	0.8	-55.9	-3.5%	?
CN(C)c1ccc(NC(=O)C(=O)C2C(=O)Nc3ccccc32)cc1 (stereo unspecified)	-4.8	nt	nt	-9.9%	-4.0
COc1ccccc1C(=O)Oc1ccc2c(c1)O/C(=C\c1ccncc1)C2=O	-3.4	12.2	-10.4	2.9%	7.9
Cc1ccc(N(CC(=O)NN=C2CCN(C)CC2)S(=O)(=O)c2ccccc2)c(C)c1	-1.8	0.7	-23.7	-2.4%	-1.3
C[C@@H]1CC=C[C@H]2[C@H]1C(=O)N(Cc1ccccc1)[C@H]2c1ccc(-c2ccc(N(C)C)cc2)cc1F	2.5	nt	nt	10.3%	90.9

(list continues)
SMILES	RecA splice inh	Arbovirus inh	YopH PTP inh	Mtb H37Rv	Mtb betalactam	others
CCn1c(C)nc2cc(-c3nc4n(n3)Cc3ccccc3-4)ccc21	-0.2	-22.0	-25.9	-8.6%	-7.3
COc1ccc(C(=O)Nc2ccccn2)cc1	0.2	-0.4	-17.2	nt	-9.8
CCOc1ccc(C(=O)N/N=C/c2c(C)[nH]c(=O)[nH]c2=O)cc1	-0.8	nt	nt	nt	-2.8
O=C(O)Cc1c(C(=O)O)[nH]c2ccc(C(=O)O)cc12	-1.6	nt	nt	nt	-1.4
COCc1ccc(C(=O)NCC2(N3CCCCC3)CCCCC2)cc1	1.2	nt	nt	nt	-4.7
NC(=O)CCc1nc2cc(C(F)(F)F)ccc2n(Cc2ccccc2)c1=O	2.1	nt	nt	nt	-9.4
